Source: PubChem
NOMO-1 viab – NOMO-1 AML cell viability reduction, primary screen, STK33 inhibitor project, CellTiter-Glo luminescence | NOMO-1 AML viability, 72 h | inhibition, % (concentration not given with the values) | 37,000 compounds, 7.5% hits | AID 2330, 2010;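 active = most replicates above 80%; inconclusive = exactly half above 80%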;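 also: wells of about 30 µL received 25 nL stock; 0% = median of vehicle wells and 100% = reference inhibitor level; the first replicate is given; inactives centre near 10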
Starred values were filed as active, the others as inactive; ? = inconclusive.

Compound,NOMO-1 viab
COC(=O)c1c(NC(=O)Nc2ccc(Cl)c(Cl)c2)sc2c1C(C(=O)OC)CC2 (stereo unspecified),8
C[C@@H]1CN([C@H](C)CO)C(=O)c2cccc(NC(=O)c3nc4ccccc4s3)c2O[C@H]1CN(C)Cc1ccc(C(=O)O)cc1,11
C[C@H]1CN([C@@H](C)CO)C(=O)c2cccc(NC(=O)c3ccncc3)c2O[C@H]1CN(C)S(C)(=O)=O,-1
C[C@@H]1CN([C@@H](C)CO)C(=O)Cc2cc(NC(=O)Cc3cn(C)c4ccccc34)ccc2O[C@@H]1CN(C)C(=O)Nc1ccc(C(F)(F)F)cc1,46
C[C@H](CO)N1C[C@H](C)[C@@H](CN(C)C(=O)Nc2cccc3ccccc23)Oc2c(NS(=O)(=O)c3ccc(F)cc3)cccc2C1=O,7
C[C@H]1CN([C@@H](C)CO)C(=O)c2cc(NS(=O)(=O)c3ccc(F)cc3)ccc2O[C@@H]1CN(C)S(=O)(=O)c1ccccc1,17
CC(=O)Nc1ccc(NS(C)(=O)=O)cc1,14
CC(C)(C)C(=O)Nc1ccccc1Cc1ccccc1,-6
COc1ccc(S(=O)(=O)Nc2ccc3c(c2)CC(=O)N([C@@H](C)CO)C[C@H](C)[C@@H](CN(C)Cc2ccncc2)O3)cc1,3
C[C@H](CO)N1C[C@H](C)[C@H](CN(C)C(=O)Nc2ccc(F)cc2)Oc2ccc(NC(=O)c3ccncc3)cc2C1=O,20
COc1ccc(S(=O)(=O)Nc2ccc3c(c2)C(=O)N([C@@H](C)CO)C[C@H](C)[C@H](CN(C)Cc2ccccc2)O3)cc1,9
C[C@H]1CN([C@@H](C)CO)C(=O)c2cc(NS(=O)(=O)c3ccccc3)ccc2O[C@@H]1CN(C)Cc1ccc(C(F)(F)F)cc1,42
COc1ccc(NC(=O)CN2CCC(C(N)=O)(N3CCCCC3)CC2)cc1,-12
COc1ccc(NC(=O)Nc2ccc3c(c2)C(=O)N([C@@H](C)CO)C[C@H](C)[C@H](CN(C)C(=O)Nc2ccc(F)cc2)O3)cc1,5
C[C@H]1CN([C@@H](C)CO)C(=O)c2cc(NC(=O)NC3CCCCC3)ccc2O[C@H]1CN(C)S(=O)(=O)c1ccc(F)cc1,21
C[C@H](CO)N1C[C@H](C)[C@H](CN(C)Cc2ccc(Oc3ccccc3)cc2)Oc2ccc(NS(=O)(=O)c3ccc(F)cc3)cc2C1=O,13
C[C@H]1CN([C@@H](C)CO)C(=O)c2cccc(NC(=O)c3cnccn3)c2O[C@H]1CN(C)CC1CCCCC1,0
CC(C)NC(=O)N(C)C[C@@H]1Oc2ccc(NC(=O)NC3CCCCC3)cc2CC(=O)N([C@@H](C)CO)C[C@@H]1C,-9
COc1ccc(NC(=O)Nc2ccc3c(c2)CC(=O)N([C@@H](C)CO)C[C@@H](C)[C@@H](CN(C)Cc2ccc(-c4ccccc4)cc2)O3)cc1,21
C[C@H](CO)N1C[C@H](C)[C@H](CN(C)C(=O)NC2CCCCC2)Oc2ccc(NC(=O)Nc3ccccc3)cc2C1=O,12
C[C@@H]1CN([C@H](C)CO)C(=O)Cc2cc(N(C)C)ccc2O[C@@H]1CN(C)C(=O)Nc1ccc(C(F)(F)F)cc1,11
COc1ccccc1NC(=O)CNS(=O)(=O)c1ccccc1,-7
C[C@H]1CN([C@@H](C)CO)C(=O)c2cc(NS(=O)(=O)c3ccc(Cl)cc3)ccc2O[C@H]1CN(C)Cc1ccc(-c2ccccc2)cc1,62
N#Cc1c(NC(=O)CCn2cnc3ccccc3c2=O)sc2c1CCCC2,28
C[C@@H]1CN([C@@H](C)CO)C(=O)c2cc(NC(=O)CCCN(C)C)ccc2O[C@H]1CN(C)S(=O)(=O)c1cn(C)cn1,6
C[C@H]1CN([C@@H](C)CO)C(=O)c2cccc(NC(=O)c3cnccn3)c2O[C@@H]1CN(C)Cc1ccccc1,4
C[C@@H]1CN([C@@H](C)CO)C(=O)c2cccc(NC(=O)c3cnccn3)c2O[C@@H]1CN(C)Cc1ccncc1,3
Cc1ccccc1OCC(O)Cn1c2ccccc2c2ccccc21 (stereo unspecified),-30
Cc1ccc(S(=O)(=O)Nc2cccc3c2O[C@@H](CN(C)C(=O)Nc2ccc(C(F)(F)F)cc2)[C@@H](C)CN([C@H](C)CO)C3=O)cc1,34
CC1CCc2c(sc3ncnc(SCC(=O)Nc4ccc5c(c4)OCCO5)c23)C1 (stereo unspecified),37
O=c1c2ccccc2c(-c2ccccc2)nn1Cc1ccccc1,36
C[C@H](CO)N1C[C@H](C)[C@H](CN(C)Cc2ccccc2)Oc2ccc(NC(=O)c3ccncc3)cc2CC1=O,9
Cc1noc(C)c1S(=O)(=O)N(C)C[C@@H]1Oc2ccc(NS(=O)(=O)c3cn(C)cn3)cc2CC(=O)N([C@H](C)CO)C[C@H]1C,-8
O=C(O)C1(NS(=O)(=O)c2ccc(F)c(Cl)c2)CCCCC1,3
CCOC(=O)c1ccc2nc(C(F)(F)F)nc(NCCc3ccc(OC)cc3)c2c1,38
C[C@H](CO)N1C[C@H](C)[C@H](CN(C)C)Oc2ccc(NC(=O)Nc3ccccc3)cc2CC1=O,-11
COc1ccc(S(=O)(=O)Nc2ccc3c(c2)CC(=O)N([C@H](C)CO)C[C@@H](C)[C@H](CN(C)C(=O)Nc2ccccc2)O3)cc1,-3
C[C@@H]1CCCCO[C@H](CN(C)C(=O)NC2CCCCC2)[C@@H](C)CN([C@H](C)CO)C(=O)c2cc(NC(=O)Nc3ccc(F)cc3)ccc2O1,7
COc1cc(/C=C/c2cc(O)cc(O)c2)ccc1O[C@@H]1O[C@H](CO)[C@@H](O)[C@H](O)[C@H]1O,28
CCc1nnc2sc(-c3ccc(N)cc3)nn12,16
C[C@H](CO)N1C[C@H](C)[C@@H](CN(C)S(=O)(=O)c2cccs2)Oc2ccc(NC(=O)c3ccncc3)cc2C1=O,-26
CC(C)=CCOc1cc2oc(=O)ccc2cc1O,109*
Cc1ccc(C(C)C)c(OCC(=O)Nc2ncc(I)cc2C)c1,-3
COc1ccc(S(=O)(=O)Nc2ccc3c(c2)C(=O)N([C@@H](C)CO)C[C@H](C)[C@H](CN(C)Cc2ccc(-c4ccccc4)cc2)O3)cc1,15
C[C@H](CO)N1C[C@H](C)[C@H](CN(C)S(=O)(=O)c2ccc(Cl)cc2)Oc2ccc(NC(=O)Nc3ccc(C(F)(F)F)cc3)cc2C1=O,63
COC(=O)[C@H]1[C@H]2C[C@@H]3c4[nH]c5cc(OC)ccc5c4CCN3C[C@H]2C[C@@H](OC(=O)/C=C/c2cc(OC)c(OC)c(OC)c2)[C@@H]1OC,?
CCCCc1ccc(-c2csc(NC(=O)c3ccccc3[N+](=O)[O-])c2C(N)=O)cc1,43
COc1ccc(NC(=O)N(C)C[C@H]2OCCCC[C@@H](C)Oc3ccc(NS(=O)(=O)c4c(C)noc4C)cc3C(=O)N([C@H](C)CO)C[C@@H]2C)cc1,13
COc1ccc(S(=O)(=O)Nc2ccc3c(c2)C(=O)N([C@@H](C)CO)C[C@@H](C)[C@H](CN(C)S(C)(=O)=O)O3)cc1,1
COc1ccc(NC(=O)Nc2ccc3c(c2)CC(=O)N([C@H](C)CO)C[C@H](C)[C@H](CN(C)C(=O)NC(C)C)O3)cc1,-4
C[C@@H]1CCCCO[C@@H](CN(C)Cc2ccc(C(=O)O)cc2)[C@@H](C)CN([C@H](C)CO)C(=O)c2cc(NS(=O)(=O)c3ccccc3)ccc2O1,22
COc1ccc(-c2nc3ccccc3s2)cc1NC(=O)COc1ccc(Cl)cc1Cl,6
C[C@H](CO)N1C[C@H](C)[C@@H](CN(C)S(=O)(=O)c2ccc(F)cc2)Oc2c(NC(=O)c3cnccn3)cccc2C1=O,2
N#CC1=C(N)Oc2nc(-c3ccccc3)[nH]c2C1c1ccc(OCC(N)=O)cc1 (stereo unspecified),-19
C[C@H]1CN([C@@H](C)CO)C(=O)c2cc(NC(=O)Nc3cccc4ccccc34)ccc2O[C@H]1CN(C)S(=O)(=O)c1ccc(Cl)cc1,-8
COc1ccc(C(Nc2cccc(C)n2)c2ccc3ccc(C)nc3c2O)c(OC)c1OC (stereo unspecified),96*

> COc1cccc(S(=O)(=O)NCc2ccc(C(=O)Nc3ccc4sc(C)nc4c3)cc2)c1
  NOMO-1 viab: 70
> Cc1ccc(N2C3=C(C(=O)CC(C)(C)C3)C(c3cccs3)C3=C2CC(C)(C)CC3=O)cc1C
  NOMO-1 viab: 118*
> C[C@@H]1CN([C@H](C)CO)C(=O)c2cc(NC(=O)CCC(F)(F)F)ccc2O[C@@H]1CN(C)Cc1ccc(C(=O)O)cc1
  NOMO-1 viab: -19
> Cc1ccc(S(=O)(=O)Nc2ccc3c(c2)C(=O)N([C@H](C)CO)C[C@H](C)[C@@H](CN(C)S(=O)(=O)c2cn(C)cn2)OCCCC[C@@H](C)O3)cc1
  NOMO-1 viab: -6
> C[C@@H]1CC[C@]2(C(=O)OC3OC(COC4OC(CO)C(O[C@@H]5O[C@@H](C)[C@H](O)[C@@H](O)[C@H]5O)C(O)C4O)C(O)C(O)C3O)CC[C@]3(C)C(=CCC4[C@@]5(C)CC[C@@H](O)[C@](C)(C(=O)O)C5CC[C@]43C)C2[C@H]1C (stereo partly specified)
  NOMO-1 viab: 1
> CC(C)NC(=O)N(C)C[C@H]1Oc2ccc(NC(=O)Nc3ccc4c(c3)OCO4)cc2CC(=O)N([C@H](C)CO)C[C@H]1C
  NOMO-1 viab: -15
> COc1ccc(S(=O)(=O)N(C)C[C@H]2Oc3ccc(NS(=O)(=O)c4ccc(F)cc4)cc3C(=O)N([C@@H](C)CO)C[C@H]2C)cc1
  NOMO-1 viab: -1
> Cn1c(SCC(=O)Nc2cccc(Br)c2)nnc1-c1cccs1
  NOMO-1 viab: -17
> Cc1cc(C)c(S(=O)(=O)NCC(=O)Nc2ccc(C(C)C)cc2)c(C)c1
  NOMO-1 viab: 95*
> C[C@H](CO)N1C[C@H](C)[C@@H](CN(C)C(=O)Nc2ccccc2)Oc2c(NS(=O)(=O)c3cccs3)cccc2C1=O
  NOMO-1 viab: 8

> C[C@H](CO)N1C[C@H](C)[C@H](CN(C)Cc2ccc3c(c2)OCO3)Oc2ccc(NS(=O)(=O)c3ccccc3)cc2C1=O
  NOMO-1 viab: 10
> Cc1cc(NC(=O)C2CCCCC2C(=O)O)ccc1NC(=O)c1ccccc1 (stereo unspecified)
  NOMO-1 viab: 2
> Cc1ccc(N(CC(=O)Nc2cccc3ccccc23)S(C)(=O)=O)cc1Cl
  NOMO-1 viab: 28
> C[C@H](CO)N1C[C@H](C)[C@H](CN(C)Cc2ccc(Oc3ccccc3)cc2)Oc2c(NS(C)(=O)=O)cccc2C1=O
  NOMO-1 viab: 27
> Cc1ccc(C)c(NC(=O)CN(c2ccc(Br)cc2)S(C)(=O)=O)c1
  NOMO-1 viab: -23
> CCOC(=O)c1ccc(COC(=O)c2ccc3ccccc3c2O)o1
  NOMO-1 viab: -11
> CC(C)NC(=O)Nc1ccc2c(c1)C(=O)N([C@H](C)CO)C[C@H](C)[C@H](CN(C)Cc1ccccc1)O2
  NOMO-1 viab: 14
> C[C@H](CO)N1C[C@H](C)[C@H](CN(C)S(=O)(=O)c2ccccc2)Oc2ccc(NS(=O)(=O)c3ccccc3)cc2C1=O
  NOMO-1 viab: -1
> CNC[C@H]1Oc2c(NC(=O)Nc3ccccc3)cccc2C(=O)N([C@H](C)CO)C[C@@H]1C
  NOMO-1 viab: -7
> C[C@H](CO)N1C[C@H](C)[C@@H](CN(C)Cc2ccc(-c3ccccc3)cc2)Oc2ccc(NC(=O)Cc3cn(C)c4ccccc34)cc2C1=O
  NOMO-1 viab: 59

> C[C@@H]1CN([C@H](C)CO)C(=O)Cc2cc(NC(=O)C3CCCCC3)ccc2O[C@H]1CN(C)C(=O)Nc1ccc2c(c1)OCO2
  NOMO-1 viab: 12
> O=C(Nc1ccccc1[N+](=O)[O-])c1cccc(S(=O)(=O)Nc2ccc(Br)cc2)c1
  NOMO-1 viab: -7
> Cc1cc(=O)[nH]c(SCC(=O)Nc2ccc(I)cc2)n1
  NOMO-1 viab: -7
> CC(C)NC(=O)Nc1cccc2c1O[C@H](CN(C)Cc1ccc(C(=O)O)cc1)[C@H](C)CN([C@@H](C)CO)C2=O
  NOMO-1 viab: 20
> Cc1noc(C)c1NC(=O)Nc1ccc2c(c1)C(=O)N([C@H](C)CO)C[C@H](C)[C@@H](CN(C)S(=O)(=O)c1cn(C)cn1)O2
  NOMO-1 viab: 19
> CCOC(=O)c1ccccc1NC(=O)CC1Sc2ccc(C(F)(F)F)cc2NC1=O (stereo unspecified)
  NOMO-1 viab: 18
> O=C(CSc1nnc(-c2ccccc2)c(-c2ccccc2)n1)Nc1cccc(C(F)(F)F)c1
  NOMO-1 viab: 28
> Cc1c(NC(=O)CN(c2ccccc2F)S(C)(=O)=O)cccc1[N+](=O)[O-]
  NOMO-1 viab: 37
> COc1ccc(NC(=O)N(C)C[C@H]2OCCCC[C@@H](C)Oc3ccc(NS(=O)(=O)c4ccccc4)cc3C(=O)N([C@H](C)CO)C[C@@H]2C)cc1
  NOMO-1 viab: 27
> CCc1ccccc1NC(=O)CCCN1C(=O)c2ccccc2C1=O
  NOMO-1 viab: 16

Some of the compounds tested, so the mix of outcomes need not match the whole.
